# Sa ugtP lethal: compounds lethal to S. aureus RN4220 ugtP deletion mutant; OD600 growth, 16 h; some inactives read as strong as hits; growth inhibition, % (no concentration beside the values); actives 0.54% (n = 330,000); AID 1259309;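 active = z-score under -3 and OD600 up to 0.15 on both plates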;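 also: plate controls were untreated wells for no effect and antibiotic for full effect; wells of about 80 µL received 100 nL stock; the first replicate is given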
# BJeLR viability: kills HRASV12-expressing BJeLR cells. inhibition, % (test concentration not listed). BJeLR (HRASV12) viability, CellTiter-Glo ATP luminescence, 48 h; reference of the scale not given here. actives 0.17% (n = 300,000);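 active = replicate mean above 50%; inconclusive = above 50% but judged a plate artefact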;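 also: 50 nL library stock added to about 25 µL; numbers are from one replicate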
# Mtb hypoxia rep: inhibitors of hypoxia-regulated fluorescent reporter in Mycobacterium tuberculosis. M. tuberculosis hypoxia-regulated fluorescent reporter, fluorescence. fluorescence inhibition, % (concentration not given with the values). AID 1159583. actives 0.1% (n = 300,000);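 active = 35 to 45% if threefold the growth effect, above 45% if 1.5-fold the growth effect; inactive = the rest, general growth blockers included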;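 also: wells of about 50 µL received 100 nL stock; 0% = vehicle wells and 100% = reference inhibitor wells; whole bacteria with a GFP reporter of the hypoxia response; strong numbers were not always called active; many hits fall short of the cut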
# PrP 5UTR inh: inhibition of PrP 5' UTR reporter expression; cell-based PrP 5' UTR mRNA reporter, plate reader; inhibition, % (test concentration not listed); actives 0.35% (n = 340,000);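 active = every replicate at 50% or more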;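 also: 0 = median of the neutral control wells; tested in H4 reporter cells; numbers are from one replicate; inactives centre near -14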
# Bead autofluor: flagged as autofluorescent in microsphere protease counterscreen; compound autofluorescence counterscreen, microsphere flow cytometry; hits give high values; fluorescence intensity (test concentration not listed); actives 3.1% (n = 360,000); AID 624483;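 active = at least 3 SD above the mean of all compounds, about 16000 in these data; inconclusive = too few beads counted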;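 also: 100 nL of 1 mM stock went into each well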
# RN4220 kill: kills Staphylococcus aureus RN4220. S. aureus RN4220 growth, OD600, 16 h. actives 0.33% (n = 330,000). inhibition, % (no concentration beside the values). AID 1259311;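 active = z-score of -3 or lower and OD600 up to 0.18 on both plates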;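 also: plate controls were untreated cells for no effect and reference antibiotic for full effect; stock transfer was 100 nL into about 80 µL; one replicate is shown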
# Mtb hypoxia rep growth: further read-out of Mtb hypoxia rep, marked with its call; growth inhibition, %; measured here: M. tuberculosis growth (absorbance);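 0% = vehicle and 100% = reference antibiotic; read after six days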
# Active calls of the source: *; ? = inconclusive; . = no result given. Hits appear at their usual frequency; any-hit rate near 4%.
# The first 15 compounds (preview)
SMILES,Sa ugtP lethal,BJeLR viability,Mtb hypoxia rep,Mtb hypoxia rep growth,PrP 5UTR inh,Bead autofluor,RN4220 kill
CN1CCN(c2ccc(S(=O)(=O)N3CCCCC3)cc2NC(=O)CSCc2ccccc2)CC1,8,-3,13,5,-6,5403,4.9
CN1CCN(c2ccc(S(=O)(=O)N3CCOCC3)cc2NC(=O)Cc2ccccc2F)CC1,5,.,10,6,-5,3586,7.8
CSc1ncccc1C(=O)OCC(=O)N1CCN(C(=O)c2ccco2)CC1,0,.,4,5,-22,8534,-2.1
CN(Cc1ccco1)C(=O)CSc1nc(C2CC2)n(-c2ccccc2)n1,2,.,10,7,-6,5375,2.5
COc1ccccc1N1CCN(CCCn2c(=S)[nH]c3ccccc3c2=O)CC1,13,-22,9,10,-28,3922,1.1
CC(C)(C)C(=O)NNC(=O)CCCOc1ccc(Cl)cc1Cl,-2,3,3,7,-36,4370,4.7
COC(=O)C(C)Sc1nc2c(c(=O)[nH]c(=O)n2C)n1CCCc1ccccc1 (stereo not given),2,12,15,-3,-11,2883,4.1
COc1cc(-c2nnc(CSc3nnc4nc(C)cc(C)n34)o2)cc(OC)c1OC,9,16,2,0,16,3613,6.5
Cc1ccc(C)c(NC(=S)NCc2ccc3c(c2)OCO3)c1,9,10,.,.,-11,3536,1.7
O=C(Cn1c(=O)cnc2ccccc21)Nc1cccc(S(=O)(=O)N2CCOCC2)c1,3,.,28*,68*,7,2978,5.7
Cc1ccc(S(=O)(=O)Nc2cc(=O)[nH]c3c2CCC3)cc1,1,3,3,-7,-20,3130,0.0
COc1ccc(O)c(C(=O)C2c3ccccc3C(=O)N2c2ccc(C)cc2)c1 (stereo not given),-3,7,9,2,-61,4615,9.9
Cc1cc(NC(=O)COc2ccccc2C)no1,-7,1,12,5,-43,2534,-1.6
Cc1nnc(NC(=O)c2ccc(S(=O)(=O)N3CCCCCC3)cc2)o1,8,-4,.,.,-25,4817,17
CCCCC1=CC2=C(c3ccco3)C(=O)C(C)(OC(=O)c3ccc(OC)cc3)C(=O)C2=CN1Cc1ccc2c(c1)OCO2 (stereo not given),.,32,.,.,4,3780,.

# The listing, from the first entry:
SMILES,Sa ugtP lethal,BJeLR viability,Mtb hypoxia rep,Mtb hypoxia rep growth,PrP 5UTR inh,Bead autofluor,RN4220 kill
CN1CCN(c2ccc(S(=O)(=O)N3CCCCC3)cc2NC(=O)CSCc2ccccc2)CC1,8,-3,13,5,-6,5403,4.9
CN1CCN(c2ccc(S(=O)(=O)N3CCOCC3)cc2NC(=O)Cc2ccccc2F)CC1,5,.,10,6,-5,3586,7.8
CSc1ncccc1C(=O)OCC(=O)N1CCN(C(=O)c2ccco2)CC1,0,.,4,5,-22,8534,-2.1
CN(Cc1ccco1)C(=O)CSc1nc(C2CC2)n(-c2ccccc2)n1,2,.,10,7,-6,5375,2.5
COc1ccccc1N1CCN(CCCn2c(=S)[nH]c3ccccc3c2=O)CC1,13,-22,9,10,-28,3922,1.1
CC(C)(C)C(=O)NNC(=O)CCCOc1ccc(Cl)cc1Cl,-2,3,3,7,-36,4370,4.7
COC(=O)C(C)Sc1nc2c(c(=O)[nH]c(=O)n2C)n1CCCc1ccccc1 (stereo not given),2,12,15,-3,-11,2883,4.1
COc1cc(-c2nnc(CSc3nnc4nc(C)cc(C)n34)o2)cc(OC)c1OC,9,16,2,0,16,3613,6.5
Cc1ccc(C)c(NC(=S)NCc2ccc3c(c2)OCO3)c1,9,10,.,.,-11,3536,1.7
O=C(Cn1c(=O)cnc2ccccc21)Nc1cccc(S(=O)(=O)N2CCOCC2)c1,3,.,28*,68*,7,2978,5.7
Cc1ccc(S(=O)(=O)Nc2cc(=O)[nH]c3c2CCC3)cc1,1,3,3,-7,-20,3130,0.0
COc1ccc(O)c(C(=O)C2c3ccccc3C(=O)N2c2ccc(C)cc2)c1 (stereo not given),-3,7,9,2,-61,4615,9.9
Cc1cc(NC(=O)COc2ccccc2C)no1,-7,1,12,5,-43,2534,-1.6
Cc1nnc(NC(=O)c2ccc(S(=O)(=O)N3CCCCCC3)cc2)o1,8,-4,.,.,-25,4817,17
CCCCC1=CC2=C(c3ccco3)C(=O)C(C)(OC(=O)c3ccc(OC)cc3)C(=O)C2=CN1Cc1ccc2c(c1)OCO2 (stereo not given),.,32,.,.,4,3780,.
COc1ccc(-c2cc([C@H]3[C@H]4C=CC[C@@H](C)[C@@H]4C(=O)N3Cc3ccccc3)ccc2F)cc1,.,7,.,.,0,2984,.
Cc1noc(C)c1C(=O)N1CCC2(CC1)Oc1ccc(F)cc1C(=O)C21CC(c2ccc(Cl)cc2)=NO1 (stereo not given),4,-1,-4,12,-7,4117,0.5
Cc1c(/C=N/N2C(=O)C3C4C=CC(C4)C3C2=O)c2ccccc2n1C (stereo not given),.,7,.,.,-1,1812,.
O=C(COc1ccc(C(=O)c2ccccc2)cc1)NC1CCCCCC1,7,7,7,1,-12,2466,-5.4
COc1ccc(Oc2nc(SC)nc3ccsc23)cc1,23,-3,0,8,-4,3357,-6.3
CN(Cc1ccc(C(F)(F)F)cc1)C(=O)C1CCC(=O)N(C2CC2)C1 (stereo not given),8,4,11,-2,-20,4075,3.9
Cc1ccc(CSc2nnc(Nc3ccc(C)cc3)s2)cc1,-10,1,15,4,-6,9305,0.5
c1ccc(Sc2cccc3ccccc23)c(CNC2=NCCN2)c1,22,7,1,3,-11,2041,-3.5
CCOC(=O)C1=C(C)N=C2SC(C(=O)OC)=CC(=O)N2C1c1ccc(OC)cc1 (stereo not given),4,-5,17,3,-15,4183,18
CCOC(=O)/C(=C/c1ccc(OC(=O)c2ccccc2)cc1)C(C)=O,6,6,-2,1,-15,2344,5.6
CSc1ncc(CN2CCN(C3CCCC3)C(CCO)C2)cn1 (stereo not given),4,-3,5,9,-18,4299,4.0
O=C(Nc1ccc2c(c1)OCCO2)C1CCCN(S(=O)(=O)c2cccs2)C1 (stereo not given),-3,6,.,.,-19,2330,2.5
COC(=O)c1ccc(/C=N/NS(=O)(=O)c2cc(C)ccc2C)cc1,.,-7,.,.,-35,2177,.
CC(C)CN1C(=O)c2ccc(C(=O)Nc3c[nH]c(=O)[nH]c3=O)cc2C1=O,5,-14,13,-1,-13,3896,3.8
Cc1nc(N/C(N)=N/S(=O)(=O)c2ccccc2)nc2ccccc12,1,.,7,5,-9,3983,2.4
CCOc1nc(OCC)nc(-n2cc(-c3ccccc3)nn2)n1,10,-6,.,.,-22,3709,4.2
COc1ccccc1S(=O)(=O)Nc1ccc(-c2nnc3n2CCCCC3)cc1,-6,-6,12,6,-12,2665,-14
Cc1ccc(-c2nc(SC(C)C(=O)c3c(N)n(C)c(=O)n(C)c3=O)n[nH]2)cc1 (stereo not given),4,-5,-2,6,-11,.,1.1
COc1ccc(NC(=O)NC2CCCCCCC2)cc1,-1,8,10,31,-111,5617,0.9
COc1ccc(-n2c(=O)cc(N3CCN(Cc4ccccc4)CC3)[nH]c2=O)cc1,3,-1,-3,5,-29,6068,1.4
O=C(CSCc1ccccc1Br)N/N=C/c1ccccc1C(=O)O,.,-8,.,.,-5,4285,.
COC(=O)c1nnn(CC(=O)NC(=O)Nc2ccccc2F)c1C(=O)OC,3,-5,10,4,-4,4444,4.6
O=C(c1ccco1)c1cn(Cc2ccccc2)c2ccccc12,-3,5,7,1,-1,3291,-3.1
N#Cc1ccc(CSC2=NCCN2)cc1,3,8,1,12,-3,3339,2.2
Cc1nn(-c2ccccc2)c(C)c1C(=O)OCC(=O)N(C)C1CCS(=O)(=O)C1 (stereo not given),9,4,1,0,-26,2471,-2.1
Cc1cccc(NC(=O)c2ccccc2C(=O)Nc2cccc(C)c2)c1,4,-6,-1,14,-4,4081,5.4
COc1ccc(CC(=O)OCC(=O)NCc2ccc3c(c2)OCO3)cc1OC,0,.,15,14,-7,3804,3.5
COc1cccc(CNC(=O)CN2C(=O)COc3ccc(S(=O)(=O)N4CCOCC4)cc32)c1,-7,9,6,5,-13,5475,-0.7
COc1ccc(N2C(=O)CCC(C(=O)N3CCCCC3)C2c2ccc(OC)c(OC)c2)cc1 (stereo not given),2,-7,-2,-8,-19,9708,1.2
Cc1ccc(C)c(-c2csc(NN=Cc3ccco3)n2)c1,-3,.,2,-2,.,.,3.8
CCO[C@@H]1OC(C(=O)NC2CC2)=C[C@H](C2CC2)[C@H]1CCCO,.,17,.,.,-18,3473,.
CCN1CCN(S(=O)(=O)Cc2ccccc2Cl)CC1,3,1,12,-17,-8,6454,1.7
CC(=O)Nc1ccc(CN2CCCC(CO)(Cc3ccccc3C)C2)cc1 (stereo not given),1,-7,1,-7,11,5428,4.7
COCCN1Cc2cccc(C(=O)NCCCN3CCCC3=O)c2C1=O,6,-2,3,8,2,4493,1.4
Cn1ccnc1C1CCCCN1Cc1nc(Cc2cccc(C(F)(F)F)c2)no1 (stereo not given),-2,-3,3,-3,-19,4106,2.8
COc1ccc(Cl)cc1NC(=O)CC(C)c1ccccc1 (stereo not given),-1,-2,.,.,-54,2424,1.9
CCOC(=O)C1CCCCN1Cc1cccc(OC)c1OC (stereo not given),15,2,11,14,-18,4186,8.2
O=C(O)c1ccccc1C(=O)Nc1ccc(Br)c(C(F)(F)F)c1,2,2,7,7,-18,6233,4.6
CC(Oc1cccc(Br)c1)C(=O)NNC(=O)c1ccccn1 (stereo not given),-1,.,8,8,25,3820,5.8
O=C(NNS(=O)(=O)c1ccccc1[N+](=O)[O-])c1ccc(O)cc1,1,-4,0,6,-25,24381*,5.3
COc1ccc2cc(C(=O)CS(=O)(=O)c3ccccc3)c(=O)oc2c1,-2,0,2,8,-18,4774,0.6
CC(/C=N/NC(=O)CNc1n[nH]c(=O)[nH]c1=O)c1ccccc1 (stereo not given),.,-3,.,.,-21,?,.
Cc1ccccc1Nc1nc(N)nc(CN2CCN(C(=O)c3ccccc3)CC2)n1,7,-2,-9,11,-20,5113,0.9
COCCn1c(SCC(=O)Nc2ccc(C(N)=O)cc2)nc2c([nH]c3ccccc32)c1=O,-1,-19,2,-2,9,4504,4.0
COC(=O)c1ccc(/C=C/c2c(-c3ccsc3)sc3ccccc23)cc1,.,-3,.,.,-18,4277,.
# Continued.
SMILES,Sa ugtP lethal,BJeLR viability,Mtb hypoxia rep,Mtb hypoxia rep growth,PrP 5UTR inh,Bead autofluor,RN4220 kill
Cc1ccc(NC(=O)C2CCCN(C(=O)c3ccc(Cl)cc3)C2)cc1S(=O)(=O)N1CCOCC1 (stereo not given),.,4,.,.,-8,4500,.
CN(CCc1ccccc1)C(=O)CCc1nnc(Cc2ccc3c(c2)OCO3)o1,8,0,10,-1,-2,6017,1.8
COc1ccc(Cl)cc1NC(=O)NNC(=O)c1ccccn1,10,5,2,-2,-6,6185,3.1
O=C(c1cn(-c2ccccc2)nc1-c1ccc(Cl)s1)N1CCOCC1,5,4,.,.,-28,4907,0.8
C/C(CC(=O)Nc1cccc(Cl)c1Cl)=N\NC(=O)c1ccccc1N,.,-5,.,.,-17,2635,.
O=C(CN(c1ccccc1)S(=O)(=O)c1ccccc1[N+](=O)[O-])N1CCCC1,5,-6,2,3,-12,3778,2.2
CC(C)[C@H](NC(=O)[C@@H]1Cc2ccccc2CN1C(=O)OC(C)(C)C)C(=O)NCC1CCCO1 (stereo not given in full),1,5,-1,8,0,5308,1.8
Cc1ccc(NC(=O)CSc2nnc(CNC(=O)c3cccs3)o2)cc1,-3,-5,14,0,-12,2481,3.1
CC(NC(=O)C12CC3CC(CC(C3)C1)C2)c1ccc2c(c1)OCCO2 (stereo not given),-4,0,8,9,-37,15979,-1.5
Cc1cc(NCCN2CCOCC2)n2nc(C)c(-c3ccc(Cl)cc3)c2n1,9,2,.,.,-12,2638,-0.8
CCOC(=O)c1ccccc1NC(=O)CN(c1ccccc1C)S(C)(=O)=O,12,-5,15,1,-11,?,7.6
O=C(c1cccc(N2C(=O)C3C4C=CC(C4)C3C2=O)c1)N1CCN(c2ccccc2)CC1 (stereo not given),2,-18,4,1,-35,4412,1.4
O=C(CCNS(=O)(=O)c1ccccc1)OCC(=O)c1ccc(Br)cc1,3,-2,12,4,-14,5527,3.9
Cc1cc(NC(=O)CSc2nc3c(C)ccc(C)c3cc2C#N)no1,4,17,3,5,-3,3854,0.3

# Bioassay records as filed in PubChem.
